# PD-1 reversal = reversal of PD-1 mediated T-cell inhibition; primary human CD4 T cells, PD-L1 beads, CellTiter-Glo 96 h; 29,000 tested, under 10 active; activation, % (test concentration not listed);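 active = replicate mean of 50% or more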;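 note: 0% = median vehicle wells and 100% = positive control; 100 nL library stock added to about 50 µL; numbers are from one replicate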
# Shh pathway inh = blocks Sonic Hedgehog signaling; Shh-LIGHT2 Gli-luciferase reporter, 30 h; AID 2313; inhibition, % (test concentration not listed); 2.1% of 22,000 active;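 active = replicate mean of 65% or more; inconclusive = mean lower but half the replicates past it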;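 note: pathway switched on by Shh-conditioned medium diluted 1 in 25 in low serum; 100 nL library stock added to about 40 µL; 0% = median of neutral wells and 100% = positive control level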
# YB-1 expression = YB-1 expression inhibition; 0.37% of 30,000 active; delta delta Cp (YB-1 minus CDIP) (no concentration beside the values); U2OS, qRT-PCR YB-1 vs CDIP delta delta Cp, 16 h; hits give high values; zero = DMSO, each unit about twofold;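 active = delta delta Cp rounded down to an integer at or above 3, about 3 SD of DMSO wells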;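 note: higher means less YB-1 transcript or more CDIP transcript relative to DMSO; stock transfer was 100 nL into about 100 µL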
# MITF inhib = blocks MITF activity. TRPM1 promoter luciferase, luminescence, 24 h. inhibition, % (no concentration beside the values). 0.28% of 37,000 active. AID 2240;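 active = most replicates at 85% or more, or half of them and the mean; inconclusive = half reach 85% but not the mean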;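 note: human melanocyte line stably carrying TRPM1 promoter luciferase reporter; 0% = vehicle wells and 100% = a positive control; the first replicate is given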
# * hit, by the source's call; ? = inconclusive; . = not tested or not shown. A portion of the library; the hit share may differ from the screen's.
SMILES,PD-1 reversal,Shh pathway inh,YB-1 expression,MITF inhib
C[C@H]1CN([C@@H](C)CO)C(=O)c2cc(NC(=O)CCCN(C)C)ccc2O[C@H]1CN(C)Cc1ccc(C(=O)O)cc1,0.0,3.6,-0.0364,-7.0
C[C@H]1CN([C@@H](C)CO)C(=O)c2cc(NC(=O)CCCN(C)C)ccc2O[C@@H]1CN(C)C(=O)Nc1ccccc1,0.1,-46.2,0.0593,3.4
CCOC(=O)NC(=O)CSc1nc2ccccc2s1,-0.6,.,.,18.9
COc1cc(C2NCCS2)cc(OC)c1OC (stereo not given),2.4,1.7,-0.549,-9.7
COc1cc(O)c2c(c1)OC(c1ccc(O)cc1)CC2=O (stereo not given),.,6.7,0.21,.
COc1ccc(CN(C)C[C@@H]2Oc3ccc(NC(=O)NC4CCCCC4)cc3C(=O)N([C@@H](C)CO)C[C@H]2C)cc1,.,-3.1,0.192,-1.1
OC(C#CCN1CCOCC1)c1cccs1 (stereo not given),-0.3,.,-0.223,3.6
COc1ccccc1NC(=O)C1=C(C)Nc2nnnn2C1c1ccccc1OCc1ccccc1 (stereo not given),-4.5,.,.,41.2
Cc1nn(C(C)(C)C)c(OC(=O)c2cccc(Br)c2)c1S(=O)(=O)c1ccccc1,-2.5,.,.,52.0
C[C@@H]1CN([C@H](C)CO)C(=O)c2cc(NC(=O)c3ccncc3)ccc2O[C@@H]1CN(C)C(=O)Nc1ccc2c(c1)OCO2,-0.6,.,-0.659,-2.5
CCOC(=O)c1cnn(C(=O)COc2ccc(C(C)(C)C)cc2C(C)(C)C)c1N,1.1,.,-0.414,0.2
CCc1ccccc1N(CC(=O)NC)S(C)(=O)=O,0.3,.,.,-9.8
CC1(CC(=O)O)CCC2(O1)C(CO)=CCC1C(C)(C)C(O)CCC12C (stereo not given),.,10.5,-0.0841,.
CCn1c(SCC(=O)Nc2ccc(F)c(Cl)c2)nnc1-c1ccc(Cl)cc1Cl,1.6,.,.,49.2
Cc1noc(C)c1S(=O)(=O)Nc1cccc2c1O[C@@H](CN(C)Cc1ccc(C(F)(F)F)cc1)[C@@H](C)CN([C@@H](C)CO)C2=O,.,11.6,0.13,-10.1
C[C@@H]1CN([C@H](C)CO)C(=O)c2cccc(NC(=O)Nc3ccccc3)c2O[C@H]1CN(C)S(C)(=O)=O,0.4,-9.7,0.113,6.0
C=C1C(=O)O[C@@H]2/C=C(/CO[C@@H]3O[C@H](CO)[C@@H](O)[C@H](O)[C@H]3O)CC/C=C(/C=O)C[C@H](O)[C@@H]12,-0.2,-9.2,-0.642,-2.1
C[C@@H]1CCCCO[C@H](CN(C)C(=O)C2CCCCC2)[C@@H](C)CN([C@H](C)CO)C(=O)c2cc(NC(=O)Cc3ccccc3)ccc2O1,-3.1,?,-0.075,8.2
COc1ccc(S(=O)(=O)N(C)C[C@@H]2Oc3ccc(N(C)C)cc3CC(=O)N([C@H](C)CO)C[C@H]2C)cc1,-4.1,-21.6,-0.406,4.3
Cc1noc(C)c1NC(=O)N(C)C[C@H]1Oc2ccc(NC(=O)C3CC3)cc2C(=O)N([C@@H](C)CO)C[C@@H]1C,-0.1,28.4,-0.369,14.7
COc1ccc2c(c1)[C@@]1(C)CCC(=O)C[C@H]1CC2,.,-35.7,0.369,-0.6
C[C@H]1CN([C@@H](C)CO)C(=O)c2cc(NS(=O)(=O)c3cn(C)cn3)ccc2O[C@H]1CN(C)S(C)(=O)=O,2.3,-1.8,-0.238,-1.6
C[C@@H]1CN([C@H](C)CO)C(=O)c2cc(NC(=O)Cc3cn(C)c4ccccc34)ccc2O[C@@H]1CN(C)C(=O)Nc1ccc(C(F)(F)F)cc1,-1.6,20.9,-0.124,43.6
CC(C)NC(=O)Nc1ccc2c(c1)C(=O)N([C@H](C)CO)C[C@@H](C)[C@@H](CN(C)C(=O)Nc1ccc3c(c1)OCO3)O2,.,4.0,-0.108,0.1
C[C@H]1CN([C@@H](C)CO)C(=O)Cc2cc(NC(=O)Cc3cn(C)c4ccccc34)ccc2O[C@H]1CN(C)S(=O)(=O)c1cn(C)cn1,.,-25.5,0.147,-10.7

# Next section.
SMILES,PD-1 reversal,Shh pathway inh,YB-1 expression,MITF inhib
C[C@@H]1CN([C@H](C)CO)C(=O)Cc2cc(NC(=O)Nc3cccc4ccccc34)ccc2O[C@@H]1CN(C)C(=O)NC1CCCCC1,-1.8,-16.8,-0.257,-13.8
C[C@H]1CN([C@@H](C)CO)C(=O)Cc2cc(NC(=O)Nc3cccc4ccccc34)ccc2O[C@H]1CN(C)C(=O)NC1CCCCC1,.,-9.8,-0.232,21.2
Cc1noc(C)c1NC(=O)Nc1ccc2c(c1)CC(=O)N([C@H](C)CO)C[C@@H](C)[C@H](CN(C)Cc1ccccc1)O2,.,?,0.0859,16.9
O=C1CCC(=O)N1CCOP1(=O)COc2ccccc2OC1,0.6,.,-0.372,0.4
CC(C)NC(=O)N(C)C[C@@H]1Oc2ccc(NC(=O)C3CC3)cc2CC(=O)N([C@H](C)CO)C[C@@H]1C,1.8,22.8,0.0227,-2.0
Cc1cc(C(=O)NCc2ccco2)no1,-3.7,.,.,-0.3
CC(=O)OCC(=O)[C@@]1(O)CCC2C3CCC4=CC(=O)CC[C@]4(C)C3[C@@H](O)C[C@@]21C (stereo not given in full),.,39.8,0.251,-22.8
COc1ccc(S(=O)(=O)Nc2cccc3c2O[C@@H](CN(C)CC2CCCCC2)[C@H](C)CN([C@H](C)CO)C3=O)cc1,0.5,-13.6,0.124,-2.3
Cc1noc(C)c1NC(=O)Nc1cccc2c1O[C@H](CN(C)C(=O)NC1CCCCC1)[C@H](C)CN([C@@H](C)CO)C2=O,3.6,-5.0,0.638,6.8
COc1cc(C=Nc2ccc(Cl)cc2)ccc1OC(=O)/C=C/c1cccs1,-0.2,-21.6,-0.153,7.4
Cc1noc(C)c1S(=O)(=O)Nc1ccc2c(c1)C(=O)N([C@@H](C)CO)C[C@H](C)[C@@H](CN(C)Cc1ccc(C(=O)O)cc1)O2,1.0,.,-0.346,2.7
COc1ccc(CN(C)C[C@@H]2Oc3ccc(NS(=O)(=O)c4ccc(F)cc4)cc3C(=O)N([C@H](C)CO)C[C@H]2C)cc1,-0.9,3.0,-0.486,9.7
CN(C)CC/C=C1/c2ccccc2COc2ccccc21,.,1.8,0.296,-1.4
C[C@H]1CN([C@@H](C)CO)C(=O)c2cc(NS(C)(=O)=O)ccc2O[C@@H]1CN(C)CC1CCCCC1,-2.6,.,-0.0694,-20.7
C[C@H](CO)N1C[C@H](C)[C@@H](CN(C)C)Oc2c(NS(=O)(=O)c3ccc(F)cc3)cccc2C1=O,1.4,-16.8,-0.308,2.1
NC(=O)COc1ccc(Br)cc1C1C2=C(CCCC2=O)NC2=C1C(=O)CCC2,0.7,.,.,22.4
OC1(c2ccc3c(c2)OCO3)OCC2C(c3ccc4c(c3)OCO4)OCC21O (stereo not given),-2.2,19.2,-0.000307,2.8
Cc1cc(C)c(C(=O)Nc2ccc(C)c(C)c2)c(CC(C)(C)C(=O)O)c1,0.5,-11.8,-0.00958,2.1
C[C@H]1CN([C@@H](C)CO)C(=O)c2cc(NS(=O)(=O)c3ccc(F)cc3)ccc2O[C@@H]1CN(C)C,3.0,-13.0,0.226,-1.9
C/C=C(/C)C(=O)O[C@@H]1c2cc(OC)c(OC)cc2-c2c(ccc(OC)c2OC)C[C@H]2C(=O)OC[C@H]12,-1.7,3.1,0.433,4.4
Cc1ccc(-c2csc3ncnc(SCC(=O)Nc4ccc(S(N)(=O)=O)cc4)c23)cc1,1.2,.,.,-3.3
CCCNC(=O)c1ccccc1NC(=O)C1COc2ccccc2O1 (stereo not given),-0.1,.,.,-12.4
O=C(CSc1nc2sc3c(c2c(=O)[nH]1)CCCC3)N(c1ccccc1)c1ccccc1,1.2,.,.,7.1
CCOC(=O)c1c(NC(=O)C2(C)Cc3ccccc3C(=O)O2)sc2c1CCCC2 (stereo not given),-1.5,.,.,0.1
C[C@H](CO)N1C[C@H](C)[C@H](CN(C)C(=O)Nc2ccc3c(c2)OCO3)Oc2ccc(NC(=O)Cc3ccccc3)cc2CC1=O,.,.,0.609,7.9

# New compounds follow.
SMILES,PD-1 reversal,Shh pathway inh,YB-1 expression,MITF inhib
C[C@H](CO)N1C[C@H](C)[C@@H](CN(C)Cc2ccc(Cl)c(Cl)c2)Oc2c(NS(C)(=O)=O)cccc2C1=O,-3.2,-14.7,-0.081,-15.4
Cc1noc(C)c1NC(=O)N(C)C[C@H]1Oc2ccc(NC(=O)Cn3cnnn3)cc2C(=O)N([C@@H](C)CO)C[C@H]1C,0.0,6.7,-0.33,7.8
O=C(CC1(O)C(=O)N(Cc2ccccc2)c2ccc(Br)cc21)c1ccccc1[N+](=O)[O-] (stereo not given),-0.8,.,.,33.7
COc1cc(-c2nnc(SCC(=O)c3ccc(-c4ccccc4)cc3)n2C)cc(OC)c1OC,-1.5,.,.,7.1
C[C@@H]1CN([C@@H](C)CO)C(=O)c2cccc(NC(=O)c3ccc(-c4nccs4)cc3)c2O[C@H]1CN(C)C(=O)Nc1ccc(C(F)(F)F)cc1,.,-8.3,-0.00138,11.4
CC(C)NC(=O)N(C)C[C@@H]1Oc2ccc(NC(=O)Nc3ccccc3)cc2CC(=O)N([C@H](C)CO)C[C@@H]1C,-1.7,4.2,0.265,-4.7
C[C@@H]1CN([C@H](C)CO)C(=O)Cc2cc(NC(=O)Nc3ccc(C(F)(F)F)cc3)ccc2O[C@@H]1CN(C)C(=O)Nc1cccc2ccccc12,-3.6,41.3,-0.331,24.4
CC(C)NC(=O)N(C)C[C@H]1Oc2ccc(NC(=O)Nc3cccc4ccccc34)cc2C(=O)N([C@@H](C)CO)C[C@@H]1C,0.9,.,0.00879,5.4
Cc1c(Cl)cccc1NC(=O)CSc1nccc(=O)[nH]1,-1.8,.,.,25.8
O=c1[nH]c2ccccc2n1CCCSc1nc2ccccc2[nH]1,0.1,-30.6,-0.0071,-13.6
C[C@H]1CN([C@@H](C)CO)C(=O)c2cc(NC(=O)Cc3cn(C)c4ccccc34)ccc2O[C@@H]1CN(C)S(=O)(=O)c1ccccc1,-0.7,1.8,-0.122,18.2
C[C@H](CO)N1C[C@H](C)[C@@H](CN(C)C(=O)NC2CCCCC2)Oc2ccc(NS(=O)(=O)c3cn(C)cn3)cc2C1=O,1.9,-12.1,-0.0097,1.5
CC(C)(C)c1ccc(CSCC(=O)Nc2ccccc2C#N)cc1,0.5,-99.7,-0.12,10.3
C[C@H]1CN([C@@H](C)CO)C(=O)c2cccc(NS(=O)(=O)c3ccc(Cl)cc3)c2O[C@H]1CN(C)Cc1ccccc1,.,-17.6,0.0837,-8.2
COc1ccc(CN(C)C[C@@H]2Oc3c(NS(=O)(=O)c4ccccc4)cccc3C(=O)N([C@H](C)CO)C[C@H]2C)cc1,-0.3,-3.8,-0.139,1.4
COc1ccc(S(=O)(=O)N(C)C[C@H]2Oc3ccc(NC(=O)CCC(F)(F)F)cc3CC(=O)N([C@@H](C)CO)C[C@@H]2C)cc1,-1.5,-17.2,-0.154,2.0
C[C@H](CO)N1C[C@H](C)[C@@H](CN(C)C(=O)NC2CCCCC2)Oc2ccc(NS(=O)(=O)c3cccs3)cc2C1=O,.,-30.9,0.375,0.3
CCCC1=NN(C(=O)C(C)(C)C)C(=O)C1Cc1c(F)cccc1Cl (stereo not given),-0.3,6.8,0.25,6.1
Cc1cc(C(=O)Nc2cccc3c2O[C@H](CN(C)Cc2ccccc2)[C@@H](C)CN([C@H](C)CO)C3=O)n(C)n1,-1.4,31.6,0.323,-7.8
C[C@@H]1CN([C@H](C)CO)C(=O)Cc2cc(NC(=O)CCCCCC(=O)Nc3ccccc3N)ccc2O[C@H]1CN(C)C(=O)Nc1ccc(F)cc1,-1.1,.,-0.155,-2.8
COc1ccc(CN(C)C[C@H]2Oc3c(NC(=O)Nc4ccc5c(c4)OCO5)cccc3C(=O)N([C@H](C)CO)C[C@H]2C)cc1,1.5,-41.5,0.0751,-30.1
COc1ccc(NC(=O)Nc2ccc3c(c2)CC(=O)N([C@@H](C)CO)C[C@H](C)[C@@H](CN(C)Cc2ccc(C(F)(F)F)cc2)O3)cc1,.,.,-0.42,11.5
CCOc1ccccc1NC(=O)Cn1cnc2ccccc2c1=O,2.4,.,.,-1.7
CN(C)CC/C=C1\c2ccccc2Sc2ccc(Cl)cc21,.,-2.3,-0.236,-11.9
Cc1ccc(S(C)(=O)=O)cc1,0.1,-21.9,0.107,0.6

# Full records from above.
# Entry for Cc1ccc(S(C)(=O)=O)cc1 : PD-1 reversal: 0.1; Shh pathway inh: -21.9; YB-1 expression: 0.107; MITF inhib: 0.6
# Entry for C[C@H](CO)N1C[C@H](C)[C@@H](CN(C)Cc2ccc(Cl)c(Cl)c2)Oc2c(NS(C)(=O)=O)cccc2C1=O : PD-1 reversal: -3.2; Shh pathway inh: -14.7; YB-1 expression: -0.081; MITF inhib: -15.4
# Entry for C[C@@H]1CN([C@H](C)CO)C(=O)Cc2cc(NC(=O)Nc3ccc(C(F)(F)F)cc3)ccc2O[C@@H]1CN(C)C(=O)Nc1cccc2ccccc12 : PD-1 reversal: -3.6; Shh pathway inh: 41.3; YB-1 expression: -0.331; MITF inhib: 24.4

# Assay outcomes: PubChem BioAssay, Broad Institute
